GIRK2 activ: activators of human GIRK2 potassium channels; G protein-activated inward rectifier potassium channel 2 (Homo sapiens), P48051; 0.05% of 63,000 active; AID 1259325, 2017; HEK293-GIRK2 thallium flux, Thallos fluorescence; calls only for hits at 25 µM;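 active = among the strongest 0.2% of first-round signals and kept after retests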;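 note: first round at about 10 µM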
Target sequence (P48051 whole entry, looked up): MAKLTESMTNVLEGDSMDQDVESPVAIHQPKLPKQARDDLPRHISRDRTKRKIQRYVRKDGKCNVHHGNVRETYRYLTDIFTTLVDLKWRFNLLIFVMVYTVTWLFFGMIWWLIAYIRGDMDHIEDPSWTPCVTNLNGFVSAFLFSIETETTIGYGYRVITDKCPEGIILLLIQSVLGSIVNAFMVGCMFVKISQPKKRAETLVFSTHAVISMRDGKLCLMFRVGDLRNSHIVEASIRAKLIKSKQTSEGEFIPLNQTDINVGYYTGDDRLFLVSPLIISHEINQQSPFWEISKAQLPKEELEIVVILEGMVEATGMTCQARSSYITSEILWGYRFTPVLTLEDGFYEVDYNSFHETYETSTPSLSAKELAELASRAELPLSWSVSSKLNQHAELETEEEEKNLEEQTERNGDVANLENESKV
Calls only; i = inactive.

The first 15 records, ahead of the listing:
SMILES	GIRK2 activ
O=C(NCc1cccc2ccccc12)NCC1CCN(Cc2cccs2)CC1	i
CC(C)C(=O)Nc1ccc(S(=O)(=O)NCC2COC3(CCCCC3)O2)cc1 (centres undefined)	i
O=C(Cn1cnc2c(cnn2CCO)c1=O)Nc1ccccc1C(F)(F)F	i
COc1ccc(C)cc1S(=O)(=O)N1CCCC(c2nnc(Cc3ccccc3)s2)C1 (centres undefined)	i
CC(O)Cn1c(N2CCCCCC2)nc2c1c(=O)n(C)c(=O)n2C (centres undefined)	i
O=C(NCCCn1ccnc1-c1ccccc1)C(=O)Nc1cc(F)ccc1F	i
O=C(c1cc(-c2ccccc2)n[nH]1)N1CCN(c2ncccn2)CC1	i
COC(=O)c1sccc1S(=O)(=O)N(CC(=O)Nc1c(C)cccc1C)c1ccc(C)c(C)c1	i
Cc1cc(NS(=O)(=O)c2ccc(NC(=O)C3COCC(=O)N3Cc3ccccc3)cc2)nc(C)n1 (centres undefined)	i
O=C(COc1ccc2c(c1)C(=O)CC2)Nc1nc2ccccc2[nH]1	i
O=C(Cn1nc2ccc(S(=O)(=O)c3ccccc3)nn2c1=O)Nc1ccc(F)c(F)c1	i
C#CC(C)(CC)OCC(O)CN1CCN(c2ccccc2F)CC1 (centres undefined)	i
COc1ccc(CCNC(=O)Nc2ccccc2NC(=O)c2ccccc2C)cc1	i
Cc1cc(C)n(-c2ncc(NC(=O)c3c(F)cccc3Cl)cn2)n1	i
CCCS(=O)(=O)N1CCCc2cc(NS(=O)(=O)c3cc(OC)ccc3OC)ccc21	i

This part in full, from the first entry:
SMILES	GIRK2 activ
O=C(NCc1cccc2ccccc12)NCC1CCN(Cc2cccs2)CC1	i
CC(C)C(=O)Nc1ccc(S(=O)(=O)NCC2COC3(CCCCC3)O2)cc1 (centres undefined)	i
O=C(Cn1cnc2c(cnn2CCO)c1=O)Nc1ccccc1C(F)(F)F	i
COc1ccc(C)cc1S(=O)(=O)N1CCCC(c2nnc(Cc3ccccc3)s2)C1 (centres undefined)	i
CC(O)Cn1c(N2CCCCCC2)nc2c1c(=O)n(C)c(=O)n2C (centres undefined)	i
O=C(NCCCn1ccnc1-c1ccccc1)C(=O)Nc1cc(F)ccc1F	i
O=C(c1cc(-c2ccccc2)n[nH]1)N1CCN(c2ncccn2)CC1	i
COC(=O)c1sccc1S(=O)(=O)N(CC(=O)Nc1c(C)cccc1C)c1ccc(C)c(C)c1	i
Cc1cc(NS(=O)(=O)c2ccc(NC(=O)C3COCC(=O)N3Cc3ccccc3)cc2)nc(C)n1 (centres undefined)	i
O=C(COc1ccc2c(c1)C(=O)CC2)Nc1nc2ccccc2[nH]1	i
O=C(Cn1nc2ccc(S(=O)(=O)c3ccccc3)nn2c1=O)Nc1ccc(F)c(F)c1	i
C#CC(C)(CC)OCC(O)CN1CCN(c2ccccc2F)CC1 (centres undefined)	i
COc1ccc(CCNC(=O)Nc2ccccc2NC(=O)c2ccccc2C)cc1	i
Cc1cc(C)n(-c2ncc(NC(=O)c3c(F)cccc3Cl)cn2)n1	i
CCCS(=O)(=O)N1CCCc2cc(NS(=O)(=O)c3cc(OC)ccc3OC)ccc21	i
Cc1ccc(C)c(S(=O)(=O)Nc2ccc(C(=O)NCCc3ccccc3)cc2)c1	i
O=C(CN1CCC(Cn2cnc3ccccc32)CC1)N1CCc2ccccc21	i
Cc1nc(-n2nnc(C(=O)NCc3nc(-c4ccccc4)no3)c2C)sc1C	i
CC(NC(=O)c1ccccc1)C12CC3CC(CC(C3)C1)C2 (centres undefined)	i
O=C(O)c1ccc(C(=O)Nc2ccccc2C(F)(F)F)c(C(=O)O)c1	i
Cn1c(=O)c2c(nc(NCCCO)n2CC(O)COc2ccc(Cl)cc2)n(C)c1=O (centres undefined)	i
COc1ccc(CNC(=O)CN2C(=O)NC(c3cccc(Cl)c3)C3=C2COC3=O)cc1 (centres undefined)	i
COCCn1c(=O)c2c(nc3n(-c4cccc(C)c4C)c(C)cn23)n(C)c1=O	i
CCOC(=O)c1c(S(=O)(=O)Nc2ccc(C)c(Cl)c2)n[nH]c1C	i
O=C(COc1ccc(F)cc1)N1CCN(C(=O)C2CC2c2ccc3c(c2)OCO3)CC1 (centres undefined)	i
CCOc1ccc(C2C(C(=O)c3cccs3)=C(O)C(=O)N2c2cc(C)on2)cc1 (centres undefined)	i
O=C(CC1SC(N2CCOCC2)=NC1=O)Nc1ccc(O)cc1 (centres undefined)	i
C#CCOCC1CCCN(C(=O)c2ccc3c(c2)OCO3)C1 (centres undefined)	i
Cn1ccnc1SCC1CCN(C(=O)C2CC(=O)N(c3ccc(F)cc3)C2)CC1 (centres undefined)	i
O=C(Cn1nc2c(c1NC(=O)c1ccc(F)cc1F)CSC2)NCc1ccc(F)cc1	i

In another format: 2 of the compounds above.
SMILES: Cn1ccnc1SCC1CCN(C(=O)C2CC(=O)N(c3ccc(F)cc3)C2)CC1 (centres undefined)
- GIRK2 activ: i

SMILES: O=C(COc1ccc(F)cc1)N1CCN(C(=O)C2CC2c2ccc3c(c2)OCO3)CC1 (centres undefined)
- GIRK2 activ: i

Carrying on:
SMILES	GIRK2 activ
COc1ccc(-n2c(C)cn3c4c(=O)n(CC(N)=O)c(=O)n(C)c4nc23)cc1	i
O=S(=O)(Cc1ccc(Cl)cc1)c1ccc(N2CCN(Cc3ccc4c(c3)OCO4)CC2)nn1	i
Cc1sc(NC(=O)CCc2ccccc2)c(-c2nc3ccccc3s2)c1C	i
Cc1cc(C(O)CCNC(=O)C(=O)Nc2ccc3c(c2)N(S(C)(=O)=O)CCC3)c(C)o1 (centres undefined)	i
CCOC(=O)Cn1c(=O)c2c(nc3n(-c4ccccc4C)c(C)c(C)n23)n(C)c1=O	i
CC(=O)Nc1ccc(C(=O)NCCNS(=O)(=O)c2ccc(C)s2)cc1	i
O=S(=O)(/C=C/c1ccccc1)N1CC(c2nc(Cc3cccs3)no2)C1	i
CCS(=O)(=O)N1CCCc2ccc(NS(=O)(=O)c3ccc(C)cc3)cc21	i
O=C(N1CCC(Oc2ccc(Cl)cn2)CC1)C1(c2ccccc2)CCOCC1	i
Cc1cc(C)cc(-n2cc(C(=O)N3CCC(NC(=O)Cc4cccs4)CC3)nn2)c1	i
CCOc1ccc(-n2ccn3c(=O)n(CC(=O)Nc4ccc(Br)cc4)nc3c2=O)cc1	i
O=C(NCCC(O)c1ccc2c(c1)OCO2)NCc1cccc2ccccc12 (centres undefined)	i
CC(=O)Nc1ccc(Nc2cc(C)nc3nc(C(F)(F)F)nn23)cc1	i
COc1ccc(C2c3c(oc4cc(C)c(C)cc4c3=O)C(=O)N2CCN(C)C)cc1OC (centres undefined)	i
CSCCC(Nc1nc(-c2ccccc2)nc2c1oc1ccccc12)C(=O)O (centres undefined)	i
O=C(CCCCn1c(=O)c2ccccc2n(Cc2ccc(Cl)cc2)c1=O)NC1CCCCC1	i
CCOc1ccc(-c2nc(N)nc(C)c2Oc2ccccc2OC)c(O)c1	i
CCCCC1=NC2(CCCC2)C(=O)N1Cc1ccc(-c2ccccc2-c2nn[nH]n2)cc1	i
COc1ccc(-c2nnc(C3CCCN(S(=O)(=O)c4ccc(OC)cc4)C3)s2)cc1 (centres undefined)	i
O=S(=O)(NCC1(c2ccc(F)cc2)CC1)c1ccc(N2CCCCS2(=O)=O)cc1	i
CCOc1ccccc1CNC(=O)c1sccc1N(C)S(=O)(=O)c1ccccc1	i
Cc1c(C(=O)N2CCC(C)CC2)cnn1-c1cc(-c2nc(C(C)(C)C)no2)ccn1	i
Cc1ccc(-c2noc(-c3cccn(CC(=O)Nc4ccccc4Br)c3=O)n2)cc1	i
COc1ccccc1N1CCN(CC(O)COC(C)(C)C)CC1 (centres undefined)	i
COc1ccc(-c2noc(-c3ccc(=O)n(Cc4cccc(F)c4)c3)n2)cc1	i
CCc1nc(OCC(=O)Nc2cccc(C)c2C)c2ccccc2n1	i
NC(=O)c1oc2ccccc2c1NC(=O)C1CCN(S(=O)(=O)c2ccc(F)cc2)CC1	i
COc1ccccc1N1CCCn2c1nc1c2c(=O)n(Cc2ccc(C)cc2)c(=O)n1C	i
Cn1nc(-c2ccccc2)cc1C(=O)N1CCN(S(C)(=O)=O)CC1	i
O=C(c1ccoc1)N1CCC(CNS(=O)(=O)c2ccc3c(c2)CCCC3)CC1	i
CCN(CC)C(=O)Oc1ccc2c(=O)c(Oc3cccc(OC)c3)coc2c1	i
COc1cc(/C=N\Nc2ncnc3c2cnn3C(C)C)ccc1O	i
CCOC(=O)c1cccc(NC(=O)Cn2c(=O)nc(-c3ccccc3)c3ccccc32)c1	i
COc1cccc(CNC(=O)C(=O)Nc2c3c(nn2C(C)(C)C)CSC3)c1	i
CCOc1cc(NS(=O)(=O)c2cc(Cl)c(Cl)cc2Cl)ncn1	i
CCCNC(=O)c1ccc2c(c1)ncc(=O)n2CC(=O)NCc1ccc(C)cc1	i
O=C(/C=C/c1ccccc1)Nc1ccc2c(c1)CCC(=O)N2	i
CCOc1ccc(-c2noc(CN3C(=O)COc4cc(Cl)ccc43)n2)cc1	i
CC(C)CC(=O)Nc1cc(C2CC2)nn1-c1nc2c(c(=O)[nH]1)CCCC2	i
COCCNC(=O)c1nnn(-c2ccc(NC(=O)NCCc3ccccc3)cc2)n1	i
COc1ccc(C(=O)NCC#CCN(C(C)C)C(C)C)cc1	i
O=C(CSC1CCCC1)NCC1CCN(S(=O)(=O)C2CC2)CC1	i
CC1(C)Cc2cccc(OCC(=O)Nc3nc4c(s3)CN(S(C)(=O)=O)CC4)c2O1	i
OCCNc1ncnc2c1oc1ccccc12	i
COc1nn(C)cc1C(=O)N1CCC2(CC1)OCCN2S(=O)(=O)c1ccccc1	i
CCCCCCCC1OC(=O)CCC(O)C=CC(O)C1O (centres undefined)	i
Cc1nc(-n2cccc2)sc1C(=O)NCCc1ccsc1	i
COC(=O)c1ccc2c(=O)n(-c3ccccc3)c(N3CCN(c4ccc(F)cc4)CC3)nc2c1	i
COc1ccc(CCNc2ncnc3[nH]ncc23)cc1OC	i
CCOCCn1c(=O)c2c(nc3n(-c4ccc(C(F)(F)F)cc4)c(C)c(C)n23)n(C)c1=O	i

Next section
SMILES	GIRK2 activ
COc1ccccc1C1(CNC(=O)/C=C/c2ccccc2Cl)CCOCC1	i
Cc1noc(C2(NC(=O)COc3ccc(Cl)cc3)CCCCC2)n1	i
Cc1ccc(C)c2sc(OC3CCN(C(=O)c4ccc(=O)n(C)n4)CC3)nc12	i
O=C(NCc1ccc(F)cc1)c1ccc(S(=O)(=O)NC2CC2)o1	i
Cc1c(C)n2c3c(=O)n(CC(C)C)c(=O)n(C)c3nc2n1C(C)c1ccccc1 (centres undefined)	i
Cn1c(=O)[nH]c(=O)c2c1nc(N1CCOCC1)n2CCCOc1ccccc1	i
Cc1ccc(Cl)cc1-n1c(C)c(C)n2c3c(=O)n(CC(N)=O)c(=O)n(C)c3nc12	i
Cc1ccc(-c2ccc(=O)n(C(C)C(=O)Nc3ccccc3OC(F)(F)F)n2)cc1 (centres undefined)	i
Cc1cc(OCC(=O)Nc2ccc(Cl)cc2F)nc(N2CCN(c3ccccc3)CC2)n1	i
CSc1ccccc1NC(=O)C(=O)NCCC(O)c1ccc2c(c1)OCO2 (centres undefined)	i
COc1cccc(CC(=O)NCC#CCN2CCCC2)c1	i
Cn1ccnc1SCC1CCN(S(=O)(=O)c2ccc(OC(F)(F)F)cc2)CC1	i
COc1cccc(NC(=O)CSc2nnc3scc(-c4ccccc4)n23)c1	i
CSc1ccc(CNC(=O)CSc2cc(Oc3cc(C)cc(C)c3)ncn2)cc1	i
COc1ccccc1NC(=O)CSC1=NC2(CCCCCC2)Nc2ccccc21	i
CCN(CC)CCN(C(=O)c1cccc(F)c1)c1nc2ccc(S(C)(=O)=O)cc2s1	i
CC(=C\c1ccccc1)/C=C(\C#N)c1nc(-c2cc3ccccc3oc2=O)cs1	i
Cc1ccc(N2CC(C(=O)NCCn3cnc(-c4ccccc4)cc3=O)CC2=O)cc1C (centres undefined)	i
CCc1cc(CC)n(-c2nc3c(c(=O)n(Cc4ccc(OC)cc4)c(=O)n3C)n2CC)n1	i
Cc1cccc2sc(OC3CCN(C(=O)CCCS(=O)(=O)c4ccc(F)cc4)CC3)nc12	i
COc1ccc(NC(=O)C(C)Cn2nc(C)c(C)c2C)cc1 (centres undefined)	i
COCCCNc1nc2ccccc2nc1NS(=O)(=O)c1ccc(C)cc1C	i
CS(=O)(=O)C1CCN(C(=O)C2CC2)C1 (centres undefined)	i
CCOc1ccc(CNC(=O)Cn2cnc3c([nH]c4ccc(C)cc43)c2=O)cc1OCC	i
O=c1[nH]c(=S)c2c(n1-c1ccc3c(c1)OCO3)CCC2	i
O=C(Cc1csc(Nc2ncccn2)n1)NCCc1ccc(Cl)cc1	i
CCOCC(=O)NCC(C)(O)CCSC (centres undefined)	i
O=c1c2cc3c(cc2nc(SCc2nc(-c4ccc(F)cc4)no2)n1CC1CCCO1)OCO3 (centres undefined)	i
COc1ccc(OC)c(S(=O)(=O)Nc2ccc3c(c2)CC(=O)N3)c1	i
O=S(=O)(c1ccccc1C(F)(F)F)N1CCN(c2cc(-c3ccccc3)ncn2)CC1	i
COc1ccc(-c2noc(Cn3c(=O)n(C(C)C)c(=O)c4ccccc43)n2)cc1	i
CCOC(=O)c1cnn2ccc(NC(=O)C3(c4cccs4)CCCC3)cc12	i
CC(O)(CNC(=O)c1ccc(Br)o1)c1ccco1 (centres undefined)	i
COc1ccc(CCNC(=O)c2cccc(NS(=O)(=O)c3cc(C)ccc3C)c2)cc1OC	i
CCOc1ccccc1OCC(=O)Nc1ncc(Cc2ccccc2Cl)s1	i
Cc1ccccc1C(=O)N1CCN(C(=O)C2CC2c2ccccc2)CC1 (centres undefined)	i
O=C(O)Cc1ccccc1Nc1c(F)cccc1C(F)(F)F	i
CCOC(=O)c1cn(Cc2cccc(F)c2)c2ccccc2c1=O	i
O=C(CN1CCN(CC(O)c2cccs2)CC1)NC1CCCC1 (centres undefined)	i
COc1ccc(Cl)cc1NC(=O)NCCn1cnc(C)cc1=O	i
O=S(=O)(c1ccc(OC(F)(F)F)cc1)N1CCC(c2nnc(C(F)(F)F)o2)CC1	i
COc1cc(C(C)=O)ccc1OCC(=O)NCc1sc(-c2ccco2)nc1C	i
Cc1cc(C(=O)Nc2ccccc2-c2nc3ccccc3s2)on1	i
COC(=O)C12CC3CC(CC(NC(=O)Nc4ccccc4C(F)(F)F)(C3)C1)C2	i

An excerpt; the hit share may differ from the screen's.
